Screening data (PubChem BioAssay)
CSC inhib – cancer stem cell inhibition. cancer stem cell-like cells viability, luminescence. AID 2717. inhibition, % at 7.5 µM. hit rate 1.1% among 300,000;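 active = mean at 75% or more and at least half the replicates too; tested in HMLE shEcad cells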;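 note: 0% = median of negative and 100% = median of positive control wells; the first replicate is given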
Yeast UUG start – alters start codon recognition fidelity in yeast; hit rate 0.13% among 350,000; activity score, % at 18.7 µM; S. cerevisiae UUG-firefly luciferase reporter, luminescence/redox ratio;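 active = replicate mean at a twofold rise or more, about +100% in these data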;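 note: firefly luciferase made from a UUG start codon reports start codon fidelity; reporter light over untreated wells divided by growth signal over untreated wells; some hits fall short of that in this replicate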
Rce1 inhib – inhibitors of yeast Ras-converting enzyme; Q03530; yeast membranes, quenched prenylated peptide cleavage fluorescence; calls only; hit rate 0.27% among 290,000; AID 2563;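 active = fall in fluorescence gain of 50% or more versus controls, with final raw signal at or below 3038400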;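 note: plate controls were neutral control wells for no effect and wells lacking membranes for full effect; tested at 10 µM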
Target sequence (Q03530 whole entry, looked up): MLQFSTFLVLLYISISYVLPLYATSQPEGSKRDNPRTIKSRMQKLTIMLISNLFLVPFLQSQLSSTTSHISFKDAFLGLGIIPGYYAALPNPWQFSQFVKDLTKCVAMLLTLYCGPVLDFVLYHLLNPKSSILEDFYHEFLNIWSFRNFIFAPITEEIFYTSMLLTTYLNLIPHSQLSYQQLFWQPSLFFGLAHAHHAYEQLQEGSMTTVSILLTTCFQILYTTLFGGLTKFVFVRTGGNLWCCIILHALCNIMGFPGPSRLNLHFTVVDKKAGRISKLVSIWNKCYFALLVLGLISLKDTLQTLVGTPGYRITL
eIF4H inh – inhibitors of RNA binding by human eIF4H. Q15056. eIF4H fluorescence polarization binding assay. inhibition, % at 35 µM. hit rate 0.94% among 290,000. AID 2012;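 active = 50% or more with normal probe brightness, or confirmed in later tests; about a fifth of its hits are not listed in these tables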;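 note: calls also rest on retests at 20 µM and on dose response follow-up; 0% = protein and probe with vehicle and 100% = probe without protein; strong numbers were not always called active; many hits fall short of the cut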
HIV Env fusion – blocks HIV Env-driven cell-cell fusion. HeLa-JRFL Env/CEM21 cell fusion, luciferase. inhibition, % at 12.3 µM. hit rate 1.1% among 360,000. AID 651610;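 active = mean replicate inhibition score of at least 50 and every replicate individually at or above 50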;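 note: 0% = plate neutral controls and 100% = maraviroc near 300 nM; one replicate is shown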
MT1-MMP act inh – MT1-MMP (human) activation inhibition; P50281; HT1080 RFP-PRO-GFP cells, GFP/RFP ratio fluorescence, overnight; percent of plate control window, DMSO zero; GFP/RFP ratio change, % at 20 µM; hit rate 0.061% among 360,000;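 active = GFP/RFP ratio change of at least 30% with cell ATP level not reduced by more than half and red fluorescence within 50% of control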; note: strong numbers were not always called active
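Read-out: GFP/RFP fluorescence ratio; Test system: RFP-PRO-GFP reporter HT1080 cells; Compound dosing: single-point 20 µM compound, 1% DMSO; Times: overnight compound exposure at 37 °C.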
PABP FP inh – PABP-poly(A) binding inhibition; P11940; PABP-poly(A) RNA binding, fluorescence polarization; inhibition, % at 35 µM; hit rate 1% among 290,000; AID 2014;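 active = 50% or more with normal probe brightness, or confirmed in later tests; about a fifth of its hits are not listed in these tables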;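 note: calls also rest on retests at 20 µM and on dose response follow-up; controls were probe without protein and protein plus probe with vehicle; some compounds called inactive have numbers as strong as hits; many hits fall short of the cut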
Target sequence (P11940 whole entry, looked up): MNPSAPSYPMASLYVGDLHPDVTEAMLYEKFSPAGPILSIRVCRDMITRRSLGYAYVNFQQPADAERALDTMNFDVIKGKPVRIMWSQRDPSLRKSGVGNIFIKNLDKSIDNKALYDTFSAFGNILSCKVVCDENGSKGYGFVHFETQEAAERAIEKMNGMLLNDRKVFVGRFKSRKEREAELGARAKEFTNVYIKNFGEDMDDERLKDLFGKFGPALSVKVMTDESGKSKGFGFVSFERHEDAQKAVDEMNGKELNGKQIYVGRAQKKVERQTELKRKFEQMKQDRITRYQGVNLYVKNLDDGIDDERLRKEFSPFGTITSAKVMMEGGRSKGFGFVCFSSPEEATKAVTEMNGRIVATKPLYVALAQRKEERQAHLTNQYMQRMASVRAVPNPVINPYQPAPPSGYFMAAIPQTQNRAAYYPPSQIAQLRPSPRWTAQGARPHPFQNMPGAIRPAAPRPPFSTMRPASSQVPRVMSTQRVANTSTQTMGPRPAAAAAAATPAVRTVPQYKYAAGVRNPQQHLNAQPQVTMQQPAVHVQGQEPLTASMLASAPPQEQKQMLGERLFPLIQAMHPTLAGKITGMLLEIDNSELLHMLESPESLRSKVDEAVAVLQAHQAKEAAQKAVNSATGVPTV
MT1-MMP act inh RFP – further read-out of MT1-MMP act inh, marked with its call; RFP signal change, %; measured here: RFP expression control read;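 0 = vehicle wells; hits needed this value within 50% of zero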
* hit, by the source's call; i = inactive; . = not tested or not shown; & = joins results of further samples.

Start of the listing, in advance, 4 compounds:
1: O=C(CSc1nnc2n1CCCN2)c1ccc([N+](=O)[O-])cc1
2: O=C(c1cc(-c2ccc(F)cc2)nc2ccccc12)N1CCN(C2CCS(=O)(=O)C2)CC1 (stereo not given)
3: C/C(=N\NC(=O)CNc1ccccc1)c1ccccc1
4: O=S(=O)(NCCSc1ccccc1)c1cccs1

compound no.	1	2	3	4
CSC inhib	-15	.	5	-1
Yeast UUG start	.	2	.	-16
Rce1 inhib	i	.	i	i
eIF4H inh	-3	.	-4	-4
HIV Env fusion	1	9	3	9
MT1-MMP act inh	4	-1	0	1
MT1-MMP act inh RFP	1	0	2	1
PABP FP inh	3	.	-7	-11

All compounds of this part, from the first entry:
1: O=C(CSc1nnc2n1CCCN2)c1ccc([N+](=O)[O-])cc1
2: O=C(c1cc(-c2ccc(F)cc2)nc2ccccc12)N1CCN(C2CCS(=O)(=O)C2)CC1 (stereo not given)
3: C/C(=N\NC(=O)CNc1ccccc1)c1ccccc1
4: O=S(=O)(NCCSc1ccccc1)c1cccs1
5: [N-]=[N+]=N[C@@H](CCN1CC[C@H](NC(=O)OCc2ccccc2)CCC1=O)c1ccccc1

compound no.	1	2	3	4	5
CSC inhib	-15	.	5	-1	-16
Yeast UUG start	.	2	.	-16	2
Rce1 inhib	i	.	i	i	i
eIF4H inh	-3	.	-4	-4	0
HIV Env fusion	1	9	3	9	4
MT1-MMP act inh	4	-1	0	1	2
MT1-MMP act inh RFP	1	0	2	1	-3
PABP FP inh	3	.	-7	-11	11

6: Cc1c(CCC(=O)NC2CC2)c(=O)oc2c(C)c(O)ccc12
7: O=C(CSc1nc2ccccc2o1)Nc1nncs1
8: CCc1nc2ccc(C(=O)N3CCN(S(=O)(=O)CC)CC3)cn2c1N(CC)CCN(C)C
9: CCN(CC)CCCN(C(=O)Cn1nnc(-c2ccc(OC)c(OC)c2)n1)C(C(=O)NC(C)(C)C)c1ccc(F)cc1 (stereo not given)
10: Cc1ccccc1C(=O)Nc1nc2n(n1)C(c1ccccc1)CC(=O)N2 (stereo not given)

compound no.	6	7	8	9	10
CSC inhib	-7	-1	.	-15	-4
Yeast UUG start	-19	-5	-25	.	-6
Rce1 inhib	i	i	.	i	i
eIF4H inh	8	2	.	-8	-5
HIV Env fusion	.	.	9	-22	-56
MT1-MMP act inh	4	2	-4	-1	3
MT1-MMP act inh RFP	0	0	3	0	0
PABP FP inh	16	3	.	-6	-1

11: COc1ccc(Cc2nc3c4c(ncn3n2)Oc2ccc3ccccc3c2C4c2ccc(OC)c(OC)c2)cc1 (stereo not given)
12: COc1ccc(-n2c(SCC(=O)N3CCCCC3)nc(O)cc2=O)cc1
13: Cc1c(NC(=O)CN2CCCc3ccccc32)c(=O)n(-c2ccccc2)n1C
14: CCC(=O)Nc1ccc(NC(=S)NC(=O)c2cc3ccccc3o2)cc1
15: CC(C)c1ccc(CCNC(=O)CCNC(=O)c2ccc(Br)cc2)cc1

compound no.	11	12	13	14	15
CSC inhib	14	-4	-5	-12	-7
Yeast UUG start	-25	-4	-5	.	-1
Rce1 inhib	i	i	i	i	i
eIF4H inh	-18	-3	4	1	-10
HIV Env fusion	18	-7	7	4	-5
MT1-MMP act inh	-4	6	0	5	-2
MT1-MMP act inh RFP	-6	4	4	5	7
PABP FP inh	-6	14	5	31	-4

16: Cc1cc(C)c(C(=O)CSC2=NC(N)=C(C#N)C3(CCCCC3)C2C(N)=O)cc1C (stereo not given)
17: CSc1nnc([C@H](C)NC(=O)OC(C)(C)C)o1
18: COc1cc(-c2nnc(NC(=O)C3=COCCO3)o2)cc(OC)c1OC
19: COC(=O)c1ccc(S(=O)(=O)N2CCC(O)CC2)n1C
20: COc1ccc(NC(=O)c2cc(-c3ccccc3Cl)on2)cc1

compound no.	16	17	18	19	20
CSC inhib	.	5	6	2	34
Yeast UUG start	-20	-23	1	.	-14
Rce1 inhib	i	i	i	i	i
eIF4H inh	8	-6	.	0	-9
HIV Env fusion	-3	-6	-8	-6	-43
MT1-MMP act inh	-9	-6	-1	3	2
MT1-MMP act inh RFP	-9	-4	5	5	-4
PABP FP inh	-3	-4	.	-3	10

21: Cc1ccccc1NC(=O)Cn1nnc(-c2ccc(N3CCOCC3)cc2)n1
22: COc1ccccc1CNC(=O)CCNS(=O)(=O)c1cccc2nsnc12
23: CCOC(=O)CNC(=O)N1CCCC(CNS(=O)(=O)c2cccs2)C1 (stereo not given)
24: CCN1C(=O)/C(=C\c2nc3ccccc3c(=O)n2-c2ccccc2)c2ccccc21
25: O=C(NCc1ccc2c(c1)OCO2)C1CCCN(C(=O)c2ccc(Cl)cc2)C1 (stereo not given)

compound no.	21	22	23	24	25
CSC inhib	-8	-7	3	.	-1
Yeast UUG start	-6	-19	.	.	-10
Rce1 inhib	i	i	i	i	i
eIF4H inh	6	4	-16	-10	0
HIV Env fusion	-13	.	1	2	.
MT1-MMP act inh	1	10	-1	-21	1
MT1-MMP act inh RFP	6	2	2	-28	0
PABP FP inh	-2	-4	-2	4	1

26: O=C(NCCCN1CCCC1)c1ccc2c(c1)N(Cc1ccccc1)CCS2
27: Cc1ccc(S(=O)(=O)N2CCC(N3CCC(C)CC3)CC2)cc1
28: CCN(CC)C(=O)[C@H]1C[C@H](CC(=O)NCC23CC4CC(CC(C4)C2)C3)C(=O)N2CCc3c([nH]c4cc(-c5ccco5)ccc34)[C@]12C
29: O=C(O)Cn1nnn(-c2ccccc2)c1=S
30: Cc1cc(N=Cc2cc(Br)ccc2O)no1

compound no.	26	27	28	29	30
CSC inhib	29	-3	.	-6	8
Yeast UUG start	1	-21	-22	-26	-1
Rce1 inhib	i	.	.	i	i
eIF4H inh	-6	2	.	1	9
HIV Env fusion	12	-20	12	-24	.
MT1-MMP act inh	2	-2	-19	0	9
MT1-MMP act inh RFP	2	1	-24	5	1
PABP FP inh	-3	4	.	3	2

31: CCCCOc1cccc(NC(=O)CSc2nncn2C)c1
32: O=C(Nc1ccccc1N1CCOCC1)c1ccc(N2CCOCC2)c([N+](=O)[O-])c1
33: O=C(c1cc(-c2ccc(Br)cc2)on1)N1CCCCCC1
34: COc1ccc(CCCc2nnc(SCC(=O)NN)o2)cc1
35: CC(=O)Nc1ccc(N2CCOCC2)c(Cl)c1

compound no.	31	32	33	34	35
CSC inhib	-1	52	-4	0	.
Yeast UUG start	-18	.	-5	.	-21
Rce1 inhib	i	i	.	i	i
eIF4H inh	-4	-5	9	-1	8
HIV Env fusion	4	-6	-35	0	-13
MT1-MMP act inh	5	2	0	0	0
MT1-MMP act inh RFP	5	1	0	0	0
PABP FP inh	-10	-1	2	2	0

36: O=C(Nc1cc(C(=O)N2CCN(c3ccccc3O)CC2)ccc1Cl)c1cccs1
37: C[C@@H]1CN([C@@H](C)CO)S(=O)(=O)c2ccc(Br)cc2O[C@H]1CN(C)Cc1ccccc1F
38: OC(COc1ccccc1Cl)CN1CCN(CC(O)COc2ccccc2Cl)CC1 (stereo not given)
39: COc1ccc(CN2CC(C(=O)NC3CCCCC3)CC2=O)cc1 (stereo not given)
40: CCCN(Cc1ccccc1)C(=S)NC(=O)c1ccccc1[N+](=O)[O-]

compound no.	36	37	38	39	40
CSC inhib	-13	.	26	-15	6
Yeast UUG start	-6	-4&-3	-19	-5	.
Rce1 inhib	i	.	i	i	i
eIF4H inh	.	.	0	.	10
HIV Env fusion	-100	4	-18	-3	12
MT1-MMP act inh	6	-4	20	0	8
MT1-MMP act inh RFP	-2	-5	-7	-1	2
PABP FP inh	.	.	3	.	2

41: CC(=O)NCC(=O)OCc1ccc([N+](=O)[O-])cc1
42: O=C(N/C(=C\c1ccco1)C(=O)N1CCCC1)c1ccccc1
43: O=C(CSc1nc2ccccc2s1)Nc1ccc2c(c1)oc1ccccc12
44: Cc1ccc(S(=O)(=O)N2CCOCC2)cc1NC(=O)CN1C(=O)NC(C)(c2ccc(Cl)cc2Cl)C1=O (stereo not given)
45: CC(C)N(CCNC(=O)C1CCC(=O)N1Cc1ccc(F)cc1)Cc1ccccc1 (stereo not given)

compound no.	41	42	43	44	45
CSC inhib	-12	-1	10	-4	6
Yeast UUG start	.	-8	.	-6	5
Rce1 inhib	i	i	i	.	i
eIF4H inh	0	34	-8	.	-9
HIV Env fusion	.	-12	.	4	.
MT1-MMP act inh	4	-3	1	0	5
MT1-MMP act inh RFP	3	2	3	-1	5
PABP FP inh	2	25	14	.	-11

46: COc1ccc2[nH]c3c(c2c1)CCN1C(=O)C(CC(=O)NC/C=C(\C)CCC=C(C)C)C[C@H](C(=O)N(C(C)C)C(C)C)[C@@]31C (stereo not given in full)
47: CC(C)(C)c1ccc(OCCC(=O)Nc2cccc(S(=O)(=O)N3CCCCC3)c2)cc1
48: COc1ccc(NC(=O)C2=Cc3cccc(OC)c3OC2)cc1
49: O=C(Cc1nn[nH]n1)Nc1cc(Cl)cc(Cl)c1
50: CCCCNC(=O)CCC(=O)Nc1ccc2nc(N3CCC(C)CC3)cc(C)c2c1

compound no.	46	47	48	49	50
CSC inhib	.	12	-3	-12	-10
Yeast UUG start	-5	.	.	7	.
Rce1 inhib	.	i	i	i	i
eIF4H inh	.	-4	-3	3	-3
HIV Env fusion	-8	39	-51	0	-11
MT1-MMP act inh	-22	-24	3	0	-1
MT1-MMP act inh RFP	-28	-28	-2	0	-5
PABP FP inh	.	-9	-9	3	-14

51: COc1cc2c(cc1OC)CN(C1CCCN(Cc3cccc(C(C)=O)c3)C1)CC2 (stereo not given)
52: CN(C)S(=O)(=O)c1ccc(C(=O)NCCOc2ccccc2)cc1
53: O=C(CS(=O)(=O)c1cn(Cc2ccc(F)cc2)c2ccccc12)N1CCOCC1
54: Cn1c(SCC(=O)NC2CCCCC2)nnc1-c1cc2ccccc2o1
55: Cc1cc(-c2ccccc2)cc(-c2ccccc2)[n+]1C

compound no.	51	52	53	54	55
CSC inhib	.	-5	-3	3	-10
Yeast UUG start	3	-13	-6	-13	.
Rce1 inhib	.	i	i	i	i
eIF4H inh	.	5	2	-9	2
HIV Env fusion	2	-237	-17	.	0
MT1-MMP act inh	2	5	-1	-2	0
MT1-MMP act inh RFP	2	2	-2	-1	-11
PABP FP inh	.	-4	-2	-6	-1

56: NC(=O)c1ccc(-n2nnnc2SCC(=O)Nc2ccccc2-c2ccccc2)cc1
57: CCn1nc(C(=O)Nc2nc(-c3ccccn3)cs2)c2ccccc2c1=O
58: COc1ccccc1[C@@H]1C(c2ccc(F)cc2)=NN(c2ccccc2)[C@H]1C(=O)N1CCOC1=O
59: CCOC(=O)c1ccc[n+](CC(=O)c2ccc(NC(=O)c3ccccc3)cc2)c1
60: CCN(CCNC(=O)c1ccc(C#N)cc1)c1cccc(C)c1
61: Cc1nc2c(=O)n(C)c(=O)[nH]c2n1Cc1ccccc1
62: O=C(Nc1cnc2sccn2c1=O)c1ccc(Cl)cc1Cl

compound no.	56	57	58	59	60	61	62
CSC inhib	-1	.	5	-3	-14	-8	1
Yeast UUG start	-12	-19	-18	-11	-17	-9	-13
Rce1 inhib	i	.	i	i	i	i	i
eIF4H inh	-15	.	-14	-7	7	6	8
HIV Env fusion	.	16	82*	-1	.	4	-46
MT1-MMP act inh	2	3	-1	-1	-1	-2	0
MT1-MMP act inh RFP	-14	1	-1	0	-2	-2	2
PABP FP inh	-15	.	2	5	1	3	6
